# Screening data as filed in PubChem BioAssay.
# Vif A3G: inhibitors of Vif binding to APOBEC3G peptide, primary screen, biochemical, TR-FRET, GST-Vif 1-94, biotin-A3G peptide, dose response retest (AID 1117319); 260,000 compounds, 0.57% hits; one-dose inhibition, %; IC50 in µM for titrated hits; TR-FRET GST-Vif / biotin-A3G peptide binding; higher % means a stronger effect; test concentration not given here; strong numbers were not always called active;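 active = above the screen mean plus three standard deviations and confirmed in dose response; inconclusive = results disagree or hit not tested in dose response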;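 note: Vif residues 1-94 fused to GST binding biotinylated APOBEC3G peptide 110-148; 0% = full assay without inhibitor and 100% = GST in place of GST-Vif; retest series ran down from 100 µM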
# HNF4A DNA FP: change in binding of human HNF4A to DNA, primary screen, biochemical, fluorescence polarization, FITC-DNA; Hepatocyte nuclear factor 4-alpha (Homo sapiens), P41235; 1 h; activity change, % at 10 µM; 360,000 compounds, 0.3% hits; in the data active = activity change above about 30%, passing the limit was not always enough;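 note: controls were the assay level and a saturating level of protein; the project sought stronger binding though the title names inhibitors; some compounds called inactive have numbers as strong as hits; positive values seem to mean higher polarization but the record does not say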
# Target sequence (P41235 whole entry, looked up): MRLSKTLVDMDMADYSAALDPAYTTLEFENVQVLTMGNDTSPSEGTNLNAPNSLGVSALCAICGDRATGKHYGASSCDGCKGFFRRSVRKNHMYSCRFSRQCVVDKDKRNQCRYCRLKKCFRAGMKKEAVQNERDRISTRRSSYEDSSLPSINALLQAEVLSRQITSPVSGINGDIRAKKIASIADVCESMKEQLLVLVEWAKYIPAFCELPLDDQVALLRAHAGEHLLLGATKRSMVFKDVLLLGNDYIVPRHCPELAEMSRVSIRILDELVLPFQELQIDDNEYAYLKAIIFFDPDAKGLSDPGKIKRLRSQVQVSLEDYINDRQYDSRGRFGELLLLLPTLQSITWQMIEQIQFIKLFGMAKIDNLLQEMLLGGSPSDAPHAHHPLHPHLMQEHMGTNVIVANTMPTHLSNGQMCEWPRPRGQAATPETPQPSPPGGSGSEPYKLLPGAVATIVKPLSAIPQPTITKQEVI
# E coli growth: E. coli growth inhibition, primary screen, OD600; 330,000 compounds, 0.21% hits; Escherichia coli growth, 23 h; stronger effect = lower value; OD600 absorbance (test concentration not listed);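 active = OD600 absorbance below the run mean of sample wells minus 3.6 SD, in any replicate, cut at about 0.56 in these data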;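 note: stock transfer was 300 nL into about 60 µL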
# RanGTP-Impb inh: inhibitors of RanGTP-importin-beta interaction, primary screen, biochemical, FRET, CFP-Ran, YFP-importin-beta, homogeneous; Ran GTPase (GTP-bound) - importin-beta complex; cell-free CFP-Ran/YFP-importin-beta FRET ratio; inhibition, % (concentration not given with the values); 300,000 compounds, 1.1% hits;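 active = most replicates above 15%; inconclusive = exactly half above 15%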;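 note: 0% = DMSO wells and 100% = Ran loaded with GDP instead of GTP; wells of about 40 µL received 100 nL stock; the first replicate is given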
# FGF22 binding: binders of human FGF22 protein, primary screen, FGF22 synaptogenesis inhibitor project, biophysical, thermal shift, single point | Fibroblast growth factor 22 (Homo sapiens), Q9HCT0 | recombinant FGF22 thermal shift, SYPRO orange fluorescence; percent of sucrose octasulfate shift, DMSO zero | calls only at 9.99 µM | 340,000 compounds, 1.5% hits | AID 651658, 2012;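 active = melting point raised past a set limit in the mean and every replicate; inconclusive = no clear call; three in four hits are not shown here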
# Target sequence (Q9HCT0 whole entry, looked up): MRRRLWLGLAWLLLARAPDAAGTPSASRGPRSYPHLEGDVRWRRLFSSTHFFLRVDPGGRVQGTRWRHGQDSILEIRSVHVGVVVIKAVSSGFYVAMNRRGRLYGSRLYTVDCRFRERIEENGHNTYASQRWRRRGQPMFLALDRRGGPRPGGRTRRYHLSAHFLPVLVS
# AF4-AF9 inh: inhibitors of AF4 peptide binding to AF9, primary screen, biochemical, AlphaScreen, biotin-AF4 peptide, FLAG-AF9, single point | inhibition, % at 10 µM | 350,000 compounds, 0.47% hits;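 active = every replicate reaching a set inhibition limit, whatever the replicate mean, cut at about 25% in these data; inconclusive = mean inhibition reaches that limit but some replicates miss it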;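 note: 0% = plate neutral control median and 100% = total signal loss; the record names both 10 and 1 µM as test concentration; the first replicate is given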
# UCH37 DUB inh: inhibitors of human UCH37 deubiquitinase, primary screen, biochemical, Ub-AMC cleavage, fluorescence; Ubiquitin carboxyl-terminal hydrolase isozyme L5 (Homo sapiens), Q9Y5K5; purified proteasome/UCH37; inhibition, % (concentration not given with the values); 330,000 compounds, 0.33% hits;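 active = mean of two replicates above 20%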;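 note: 0% = compound-free wells with enzyme and 100% = wells lacking proteasome; stock transfer was 100 nL into about 20 µL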
# Target sequence (Q9Y5K5 whole entry, looked up): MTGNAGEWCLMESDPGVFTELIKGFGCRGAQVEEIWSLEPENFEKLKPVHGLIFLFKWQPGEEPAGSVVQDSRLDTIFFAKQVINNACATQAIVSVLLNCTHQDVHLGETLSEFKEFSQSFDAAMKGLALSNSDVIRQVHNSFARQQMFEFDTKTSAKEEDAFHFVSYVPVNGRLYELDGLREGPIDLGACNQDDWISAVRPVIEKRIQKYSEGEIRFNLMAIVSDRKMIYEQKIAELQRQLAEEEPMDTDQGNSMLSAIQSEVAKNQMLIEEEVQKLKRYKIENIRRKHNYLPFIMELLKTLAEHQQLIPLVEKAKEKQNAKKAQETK
#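 Material: Human UCH37 enzyme supplied as purified proteasome complex | Schedule: 30 min preincubation with enzyme, 25 min cleavage at room temperature | Detection: AMC fluorescence 355/460 nm | Measure: % inhibition of Ub-AMC cleavage fluorescence | Controls: Wells without proteasome as full block, compound-free enzyme plus substrate as uninhibited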
# Numbers without * were called inactive; i = inactive; ? = inconclusive; . = not tested or not shown; & = joins results of further samples; ! = a repeat was not active. The list is partial; rates above refer to the full screens.
SMILES	FGF22 binding	Vif A3G	RanGTP-Impb inh	UCH37 DUB inh	AF4-AF9 inh	HNF4A DNA FP	E coli growth
CCc1nn2c(=O)c(S(=O)(=O)Nc3cccc(F)c3)c(C)nc2s1	i	.	-2.0	-0.9	-2.4	3.1	0.708
CCOc1ccc(-c2nc(CSCC(=O)NC3CCCc4ccccc43)c(C)o2)cc1 (stereo not drawn)	.	-8.8%&-6.3%	0.8	-1.0	.	-4.5	0.679
CCc1cc2c(=O)c(-c3cnn(-c4ccccc4)c3)c(C)oc2c(CN2CCCCC2)c1O	.	-0.8%	-0.7	-172.6	.	4.8	0.71
Cc1cccc(NNC(=S)Nc2c(C)cccc2C)c1	i	.	-2.1	.	7.6	0.4	.
C=CCN(c1ccccc1Cl)S(=O)(=O)c1cccc(C(=O)NCCc2ccc(OC)cc2)c1	.	8.8%	-3.4	1.0	.	3.1	0.748
C=CCNC(=O)C1CC1(c1ccccc1)c1ccccc1 (stereo not drawn)	.	-6.4%	4.1	4.6	.	2.3	0.665
Fc1ccc(C(c2ccc(F)cc2)N2CCN(C/C=C/c3ccccc3)CC2)cc1	i	29.6%	7.4	3.5	34.5*!	0.8	.
COc1ccccc1NC(=O)Cn1c2ccc(F)cc2c2nc3n(c(=O)c21)CCS3	i	.	0.2	-46.7	-3.5	0.6	0.678
COc1ccc(C2NC(C(=O)O)Cc3c2[nH]c2ccccc32)cc1CN1CCN(c2ccc(F)cc2)CC1 (stereo not drawn)	i	-0.3%	23.6*	-4.1	12.8	4.1	0.684
CN(Cc1ccsc1)C(=O)CCc1nnc(Cc2c[nH]c3ccccc23)o1	.	.	0.6	0.2	0.5	-1.3	0.688
CC(C)c1ccc(O)c(NC(=O)c2cccnc2)c1	i	2.5%	4.9	-3.8	?	-0.7	0.706
COc1ccc(-c2cc(=O)oc3c(C)c(OC(C)C(C)=O)ccc23)cc1 (stereo not drawn)	i	.	-1.1	-2.7	0.6	0.3	0.679
COc1ccc2[nH]cc(C(=O)CN(C)CCc3ccc(OC)c(OC)c3)c2c1	.	-1.4%	3.6	5.1	.	-1.6	0.753
COc1ccc(Br)c(C(=O)N2CCCC2(C)C(=O)NCC(C)C)c1 (stereo not drawn)	i	.	.	.	0.2	-0.3	.
O=C(Nc1ccc2ccccc2c1)/C(=C\c1ccc2c(c1)OCO2)NC(=O)c1ccco1	.	.	-2.4	0.0	.	-4.7	0.683
COC(=O)c1cc(S(=O)(=O)NCc2cccc(Br)c2)c[nH]1	i	-1.4%	-1.3	1.2	-0.7	1.7	0.725
O=C1N[C@@H](Cc2ccccc2)C(=O)N2[C@@H]1C[C@@]1(Br)c3ccccc3N(S(=O)(=O)c3ccccc3)[C@@H]21	i	.	0.1	-1.0	-0.2	2.7	.
O=C(O)c1cccc(NC(=O)c2cccc(S(=O)(=O)N3CCCCC3)c2)c1	.	-4.9%	5.5	4.7	.	2.2	0.678
O=C(COc1ccc(F)cc1)Nc1ccccc1N1CCOCC1	i	-5.7%	2.1	2.5	-0.2	0.8	0.652
C=CCn1c(SCC(=O)NC2CCCCC2)nnc1-c1sc(N)nc1C	.	25.1%	2.2	2.4	.	-0.1	0.718
CCN1CCN(c2cc3c(cc2F)c(=O)c(S(=O)(=O)c2ccccc2)cn3C)CC1	i	.	2.4	-111.5	-1.0	-5.7	0.67
COc1ccc(CC(=O)Nc2cc(S(=O)(=O)N3CCOCC3)ccc2N2CCOCC2)cc1OC	i	.	.	3.4	0.9	4.4	0.701
CCN(CC)C(=O)CSc1nnc(-c2ccc(S(=O)(=O)N3CCOCC3)cc2)n1C	.	-4.3%	-0.2	.	-1.0	-0.7	.
CCOc1ccc(S(=O)(=O)N2CCCC(C(=O)NCc3ccccn3)C2)cc1 (stereo not drawn)	i	.	?	1.9	-5.3	2.7	0.67
CS(=O)(=O)N1N=C(c2ccccc2)CC1c1cccs1 (stereo not drawn)	.	-1.1%	6.7	5.5	.	-1.4	0.595
COc1ccccc1N1CCN(C(c2cccs2)C(C)NC(=O)c2cccnc2)CC1 (stereo not drawn)	i	-7.6%	0.6	0.4	5.7	-1.0	0.676
COc1cc(C(=O)Nc2ccc3nc(N4CCOCC4)sc3c2)cc(OC)c1OC	i	5.3%	.	3.3	-0.4	-1.1	0.678
CC(C)c1ccc(NC(=O)c2cnn(-c3ccccc3)c2NC(=O)c2ccco2)cc1	.	-5.8%	4.1	3.8	.	-4.1	0.756
CC[C@]12C(=O)N(C)C[C@H]([C@@H]3C(=O)N(C)C(=O)[C@@H]31)N2C(=O)c1ccc(C(C)(C)C)cc1	i	.	.	2.7	-0.8	-0.2	.
COc1ccc(-c2c(-c3cc(OC)cc(OC)c3)n(C)c3ccc(-c4ccc(OC)cc4F)cc23)cc1	i	.	.	-31.4	0.5	2.1	0.707
NC(=O)c1ccc(Cn2c(C(=O)c3cc(Cl)c(N)c(Cl)c3)c3ccccc3[n+]2[O-])cc1	i	.	.	1.6	2.8	-1.8	0.695
Cc1ccc(S(=O)(=O)NCC(c2ccco2)N2CCc3ccccc3C2)cc1 (stereo not drawn)	i	1.0%	-4.1	0.3	-1.3	1.6	0.628
Cc1ccc(C(=O)N2CCCN(c3nc4cc5c(cc4cc3C#N)OCO5)CC2)cc1	i	1.3%	113.0*	-266.4	-21.4	-19.8	0.668
C/C(CC(=O)Nc1cccc2c1CCCC2)=N\NC(=O)c1cccc2ccccc12	.	-10.5%	4.9	.	.	-0.2	.
CN1CCN(C2CN(Cc3ccc([N+](=O)[O-])cc3)S(=O)(=O)C2)CC1 (stereo not drawn)	i	-6.8%	.	.	-1.7	0.8	.
CSc1nnc([C@@H]2CCCN2C(=O)OC(C)(C)C)o1	i	1.8%	-5.5	-1.9	0.4	-1.8	0.706
CCOc1ccccc1NC(=O)COC(=O)c1cnc(C)cn1	i	-3.5%	.	-0.3	-0.6	0.5	0.635
O=S(=O)(CC=CCS(=O)(=O)c1ccccc1)c1ccccc1	i	-17.0%	.	0.6	-2.6	1.1	0.708
Cc1sc(=NC(=O)c2ccco2)n(C)c1-c1ccc(Cl)cc1	.	-2.8%	-5.0	-3.6	.	0.3	0.631
CC(=O)CSc1nnc(C(F)(F)F)n1C	i	-0.2%	5.3	2.2	33.2*	-0.4	0.669
C[C@H](NC(=O)c1ccccc1)C(=O)OCC(=O)Nc1ccc(Cl)cn1	i	-1.8%	.	.	1.6	1.1	.
COc1ccc(CCNC(=O)Cc2ccc([N+](=O)[O-])cc2)cc1OC	i	-4.6%	-0.9	-2.9	-5.4	-0.1	0.705
CN(C)c1ccc(/C=C/C(=O)c2ccc(C(C)(C)C)cc2)cc1[N+](=O)[O-]	.	-2.6%	-6.1	10.1	.	-0.9	0.762
CCCc1cc(C(=O)NCCc2ccccc2)no1	i	-4.1%	-3.3	5.8	-8.5	0.0	0.785
CCOC(=O)CCCC(=O)N1CCOCCOCCN(C(=O)CCCC(=O)OCC)CCOCCOCC1	.	.	-0.5	3.7	0.5	5.2	0.675
O=C(NCc1ccccc1)NC1(C(=O)N2CCOCC2)CCCCC1	.	0.9%	-3.2	3.3	.	-1.2	0.732
Cc1c(Cl)cccc1Nc1nc(N)nc(CSC(=S)N2CCOCC2)n1	.	0.9%	7.4	3.1	3.1	-4.1	0.639
Cc1ccc(NC2CCCN(C(=O)c3c(C)noc3C)C2)cc1C (stereo not drawn)	i	5.8%	2.5	0.7	0.8	2.9	0.676
COc1cc(OC)c(OC)cc1CNC(=O)c1ccc(S(=O)(=O)N2CCCCC2)cc1	i	-7.4%	.	1.6	8.1	1.7	0.62
CSCCC(NC(=O)c1ccccc1Cl)C(=O)Nc1cccc(S(=O)(=O)N2CCCC2)c1 (stereo not drawn)	i	.	8.8	.	-15.3	-2.6	.
O=S(=O)(N1CCOCC1)N1CCOCC1	i	5.5%	3.5	-0.3	-5.3	5.0	0.689
COc1ccc(-c2c(NC(=O)c3ccco3)oc3ccccc3c2=O)cc1	i	5.2%	2.6	10.8	-2.9	1.2	0.683
FC(F)(F)c1nnc(-c2ccccc2)nc1Oc1ccccc1	.	-3.5%	5.5	5.6	.	-2.6	0.728
Cc1ccc(-n2ncc3c2CCCC3NC(=O)c2ccoc2)cc1C (stereo not drawn)	i	.	2.9	-3.3	0.1	2.8	0.735
CCc1cccc(C)c1NC(=O)CSc1ncn[nH]1	.	-9.7%	-1.9	0.8	.	-2.2	0.657
COCCN(C(=O)CSc1n[nH]c(-c2ccc(OC)cc2)n1)c1c(N)n(Cc2ccccc2)c(=O)[nH]c1=O	i	-1.1%	0.1	1.1	-1.2	5.0	0.698
Cc1nc(N)sc1C(=O)OCC(C)C	i	.	-0.1	-1.7	-3.1	0.8	0.682
CN(Cc1ccccc1)C(=O)c1[nH]cnc1C(=O)NCc1ccccc1	i	.	.	3.5	-2.1	4.1	0.685
CC(=O)NC1CC2CCCC(C1)N2S(=O)(=O)c1cccc(F)c1 (stereo not drawn)	.	-6.8%	?	4.4	.	-2.0	0.69
CCOC(=O)/C(C#N)=C/c1c(N2CCN(c3cccc(Cl)c3)CC2)nc2c(C)cccn2c1=O	i	-12.1%	-9.6	5.7	5.0	0.5	0.671

# More entries
SMILES	FGF22 binding	Vif A3G	RanGTP-Impb inh	UCH37 DUB inh	AF4-AF9 inh	HNF4A DNA FP	E coli growth
CCn1nc(C)c(Br)c1Nc1ccc(Br)cc1	.	-9.8%	2.5	-1.9	-2.1	0.5	0.599
COc1ccccc1N1CCN(C/C(C)=C/c2ccccc2)CC1	.	-5.1%	1.2	2.1	.	-1.9	0.679
O=C(COC(=O)CNC(=O)c1ccccc1F)NCC(F)(F)F	i	6.0%	-2.8	0.9	-5.7	-0.3	0.649
CCOc1ncccc1C(=O)NCc1ccc(OC)cc1	.	2.5%	5.5	6.2	.	0.9	0.71
Cc1ccccc1NC(=S)NC(NC(=O)c1ccccc1C)C(Cl)(Cl)Cl (stereo not drawn)	.	-5.6%	4.3	2.7	.	2.9	0.737
Cc1ccc(Cl)cc1NC(=O)c1cnn2c1NC(c1ccco1)CC2C(F)(F)F (stereo not drawn)	.	27.8%	0.0	1.0	.	11.0	0.706
ClC1(Cl)CC1CSc1nc2ccccc2[nH]1 (stereo not drawn)	i	2.3%	0.6	5.7	-2.7	3.4	0.672
CC(C)c1nc(N2CCN(C(=O)c3ccco3)CC2)c2c3c(sc2n1)CCCC3	.	7.9%	4.7	-48.5	.	0.5	0.703
O=C(NC1CCCC1)C(c1ccccc1)N(C(=O)c1ccno1)c1ccccc1 (stereo not drawn)	.	0.4%	.	-0.4	.	1.3	0.777
CCc1ccc(C(=O)COC(=O)CNC(=O)CNC(=O)Cc2ccccc2)cc1	.	1.2%	0.7	4.8	.	0.9	0.737
O=C(NOCc1ccccc1)c1ccc(Cl)cc1	i	-4.0%	.	0.7	2.7	0.3	0.621
COc1ccc(OC)c(-c2cc(C(F)(F)F)c3c(n2)sc2c(O)cc(=O)[nH]c23)c1	i	1.7%	-18.5	5.4	-4.2	3.1	0.684
